FGF22 binding: binders of recombinant human FGF22 by thermal shift. AID 651658. calls only at 9.99 µM. Q9HCT0. SYPRO orange fluorescence; percent of sucrose octasulfate shift, DMSO zero. hit rate 1.5% among 340,000;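 active = melting point raised past a set limit in the mean and every replicate; three in four hits are not shown here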
ALR inh: human ALR oxidase inhibition via reduced H2O2. hit rate 3.8% among 290,000. P55789. AID 485317. inhibition, % (concentration not given with the values). purified ALR, DTT oxidation, H2O2 HRP-luminol luminescence;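 active = mean and each replicate at 75% or more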;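 note: stock transfer was 7.5 nL into about 7.5 µL; 0% = neutral wells and 100% = wells with inactivated enzyme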
E coli growth: blocks Escherichia coli growth. OD600, 23 h; hits give low values. OD600 absorbance (concentration not given with the values). hit rate 0.21% among 330,000;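 active = OD600 absorbance below the run mean of sample wells minus 3.6 SD, in any replicate, cut at about 0.56 in these data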;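 note: stock transfer was 300 nL into about 60 µL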
LANA-H2B inh: blocks KSHV LANA binding to histone H2A/H2B. inhibition, % (no concentration beside the values). AID 2629. Q9QR71. hit rate 0.6% among 320,000. cell-free LANA-H2A/H2B peptide, fluorescence polarization; in the data active = inhibition mostly above about 10%, no sharp cut-off; inactive = mostly below about 6.7%;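 note: stock transfer was 7.5 nL into about 10 µL; 0% = median of vehicle wells and 100% = median of positive control wells; one replicate is shown; the record names a cut of 25% in any replicate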
UCH37 inh: inhibitors of human deubiquitinating enzyme UCH37; Q9Y5K5; purified proteasome/UCH37, Ub-AMC cleavage fluorescence; inhibition, % (concentration not given with the values); hit rate 0.33% among 330,000; AID 588478;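 active = mean of two replicates above 20%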;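 note: 0% = compound-free wells with enzyme and 100% = wells lacking proteasome; stock transfer was 100 nL into about 20 µL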
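Material: Human UCH37 enzyme supplied as purified proteasome complex | Schedule: 30 min preincubation with enzyme, 25 min cleavage at room temperature | Detection: AMC fluorescence 355/460 nm | Measure: % inhibition of Ub-AMC cleavage fluorescence | Controls: Wells without proteasome as full block, compound-free enzyme plus substrate as uninhibited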
B2AR ag: human beta-2 adrenergic receptor agonism by FAP | P07550 | Am2.2-beta2AR cells, FAP receptor internalization, flow cytometry; reference of the scale not given here | response, % (no concentration beside the values) | hit rate 0.43% among 340,000 | AID 504454;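 active = response above a set limit, near 3 SD of response in nonfluorescent compounds, cut at about 42% in these data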;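 note: stock transfer was 100 nL into about 11 µL; a reference agonist was the positive control; negative values mostly stem from fluorescent compounds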
Target sequence (P07550 whole entry, looked up): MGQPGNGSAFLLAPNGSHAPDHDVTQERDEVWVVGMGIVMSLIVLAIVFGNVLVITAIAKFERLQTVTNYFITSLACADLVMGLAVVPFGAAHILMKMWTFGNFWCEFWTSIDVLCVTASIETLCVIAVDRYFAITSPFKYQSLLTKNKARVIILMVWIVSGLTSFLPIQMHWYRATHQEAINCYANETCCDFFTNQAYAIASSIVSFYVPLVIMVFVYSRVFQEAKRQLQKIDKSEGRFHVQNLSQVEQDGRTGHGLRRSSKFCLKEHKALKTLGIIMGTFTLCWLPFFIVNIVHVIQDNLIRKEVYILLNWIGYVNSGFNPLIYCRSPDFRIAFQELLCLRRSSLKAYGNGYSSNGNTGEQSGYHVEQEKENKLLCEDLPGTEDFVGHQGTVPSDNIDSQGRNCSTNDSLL
HNF4A DNA FP: change in binding of human HNF4 alpha to DNA; P41235; HNF4a-FITC DNA binding, fluorescence polarization, 1 h; activity change, % at 10 µM; hit rate 0.3% among 360,000; in the data active = activity change above about 30%, passing the limit was not always enough;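 note: controls were the assay level and a saturating level of protein; the project sought stronger binding though the title names inhibitors; some compounds called inactive have numbers as strong as hits; positive values seem to mean higher polarization but the record does not say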
Target sequence (P41235 whole entry, looked up): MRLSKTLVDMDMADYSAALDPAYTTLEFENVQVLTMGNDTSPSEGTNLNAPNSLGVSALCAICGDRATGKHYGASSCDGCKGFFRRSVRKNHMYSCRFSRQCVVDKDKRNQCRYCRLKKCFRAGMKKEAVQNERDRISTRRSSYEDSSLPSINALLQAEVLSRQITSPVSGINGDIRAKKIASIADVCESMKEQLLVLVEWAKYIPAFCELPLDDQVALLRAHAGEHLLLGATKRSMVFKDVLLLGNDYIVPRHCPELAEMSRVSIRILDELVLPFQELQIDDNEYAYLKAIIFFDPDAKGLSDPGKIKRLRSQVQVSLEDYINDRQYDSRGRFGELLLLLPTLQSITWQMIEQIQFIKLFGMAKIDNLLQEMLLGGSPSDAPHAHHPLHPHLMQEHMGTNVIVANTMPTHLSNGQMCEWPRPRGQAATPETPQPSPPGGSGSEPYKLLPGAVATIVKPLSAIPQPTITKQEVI
Numbers without * were called inactive; i = inactive; / = no result given; & = joins results of further samples.

Results follow in this order: B2AR ag, E coli growth, ALR inh, FGF22 binding, LANA-H2B inh, UCH37 inh, HNF4A DNA FP
> COC(=O)c1ccc(COc2ccc(/C=N/Nc3cccc(C(=O)O)c3)cc2)cc1
→ 13.8, /, -3.6, i, -5.7, /, -7.0
> COc1cc(OC)c(C(=S)N2CCCC2)cc1OC
→ 5.4, 0.675, /, i, 2.0, 1.0, -0.9
> Nc1cc(C(=O)c2ccccc2)ccc1[N+](=O)[O-]
→ 3.6, 0.737, -2.6, i, -1.5, 5.6, 1.9
> Cc1cccc(CC(=O)Nc2c3c(nn2-c2cccc(Cl)c2)CS(=O)C3)c1 (stereo unspecified)
→ 0.4, 0.652, -1.5, /, 3.2, 2.5, -0.8
> OCCNCCCCOc1ccccc1F
→ -3.4, 0.701, -9.0, /, -0.5, -1.5, -1.7
> O=C(COC(=O)CCc1c[nH]c2ccccc12)NC1CCS(=O)(=O)C1 (stereo unspecified)
→ -5.1, 0.703, 20.5, /, 1.9, 2.1, -4.2
> O=C(CCCN1C(=O)NC2(CCCC2)C1=O)NCc1ccccc1
→ -2.6, 0.617, -0.1, i, 1.7, 0.1, -5.8
> Cc1cnn(C(=O)c2cc(-c3ccccn3)nc3ccc(Cl)cc23)c1
→ -4.4, 0.727, -6.8, i, -1.3, 1.5, 3.5
> COc1nc(NCCO)nc(Nc2ccc([N+](=O)[O-])cc2)n1
→ 0.7, 0.683, -29.2, /, 4.0, 11.0, 0.0
> COc1ccc(S(=O)(=O)N2N=C(c3ccc(NS(C)(=O)=O)cc3)CC2c2ccco2)cc1 (stereo unspecified)
→ -6.0, 0.708, -8.4, i, 3.3, 2.4, 15.6
> N#Cc1ccccc1S(=O)(=O)N1CCN(C(=O)c2ccc(-n3cncn3)c([N+](=O)[O-])c2)CC1
→ -6.2, 0.694, -9.9, i, -4.5, 2.3, 1.4
> O=C(O)CSc1nnc(-c2ccc3c(c2)OCO3)o1
→ 3.3, 0.692, -1.7, /, 1.6, 1.4, 0.3
> CC(C)Nc1ccc(C(CC(N)=O)NC(=O)Cc2ccc(Br)cc2)cc1[N+](=O)[O-] (stereo unspecified)
→ -3.2, 0.685, -1.3, i, 1.0, -1.1, 5.5
> COC(=O)C1CCN(S(C)(=O)=O)CC1
→ 0.0, 0.654, -0.9, /, 3.0, 1.8, 4.6
> CCCn1c(=O)c2[nH]c(C3CCCC3)nc2n(CCC)c1=O
→ -9.2, 0.671, /, i, -2.2&18.2, 0.1, 3.7
> Cn1c(C(=O)N2CCCC(C(=O)NCCCSC3CCCCC3)C2)cc2sccc21 (stereo unspecified)
→ -0.1, /, 0.1, /, -2.1, /, 5.3
> COc1c2ccoc2c(OC[C@@H](O)C(C)(C)OC)c2oc(=O)ccc12
→ -14.0, /, -5.1, i, 0.5, -32.6, 6.4
> CCC(C)[C@H](NC(=O)Nc1ccccc1F)C(=O)O (stereo partly specified)
→ 2.3, 0.672, -0.6, i, -2.5, 4.0, -2.1
> Cc1ccc(C)c(-n2nnnc2SCC(=O)c2c(N)n(C)c(=O)n(C)c2=O)c1
→ /, 0.685, -13.7, i, 2.7, 2.7, /
> COCCn1c(=O)[nH]c2cc(C(=O)N3CCN(c4ccc(OC)cc4)CC3)ccc2c1=O
→ 8.7, 0.698, 96.0*, i, -1.0, 3.8, 3.7
> CCC(=O)Nc1ccc(NC(=O)c2ccco2)cc1
→ -6.7, 0.684, -2.8, i, 9.1, 4.5, 2.0
> c1ccc(CSc2nnc3ccc(-c4ccncc4)nn23)cc1
→ -5.7, 0.705, -11.3, i, 3.7, 2.7, 1.5
> CC(=O)N1CCN(C(=O)C2CCN(S(=O)(=O)c3ccccc3C(F)(F)F)CC2)CC1
→ 3.8, 0.684, 1.0, i, -4.3, -0.5, 2.4
> CN(CCOc1ccccc1)C(=O)C1CCC(=O)N(CCCN2CCCC2=O)C1 (stereo unspecified)
→ -8.3, 0.658, -5.5, i, 6.9, 4.7, 1.6
> NC(=O)c1ccccc1NC(=O)Nc1cccc(Cl)c1
→ -10.7, 0.66, -8.3, /, -1.5, -0.9, -1.8
> COc1cc2ncnc(NCc3ccc(C)cc3)c2cc1OC
→ -4.8, 0.731, -2.4, /, -7.4, 5.7, 3.3
> COC(=O)c1ccc2c(=O)n(-c3ccccc3)c(=S)[nH]c2c1
→ -15.0, 0.737, 59.9, i, 1.9, 3.5, 4.3
> O=C(O)c1nn(-c2ccc(Cl)cc2)ccc1=O
→ -14.1, 0.751, -6.7, /, -3.6, 2.8, 2.3
> Cc1ccc(S(=O)(=O)n2nc(OC(=O)C(C)(C)C)cc2N)cc1
→ -12.1, 0.75, 23.0, /, -6.5, -3.6, 1.2
> C=CCc1cccc(CNc2c(C)n(C)n(-c3ccccc3)c2=O)c1O
→ 19.1, 0.689, 22.2, /, -0.5, 1.2, -1.4
> COc1ccc(NC(=O)NCCCN2CCCC2=O)cc1
→ 5.5, 0.753, -11.9, i, 0.6, 1.1, 4.3
> CCN(CC(=O)NCc1cccs1)C(=O)/C=C/c1ccc(OC)cc1OC
→ -2.1, 0.663, 1.7, i, -4.3, -2.4, 0.6
> Cc1cccc(NC(=O)CSCc2nc3c(nnn3Cc3ccc(F)cc3)c(=O)[nH]2)c1C
→ -1.6, 0.696, -1.1, i, 0.4, 1.8, 3.1
> Cc1ccc(S(=O)(=O)N(CC(=O)NN=C2CCN(C)CC2)c2ccc(C(C)C)cc2)cc1
→ 0.8, 0.687, -3.3, i, -2.6, 3.7, 2.4
> O=C(Nc1ccc(N2CCOCC2)nc1N1CCOCC1)c1cccc(C(F)(F)F)c1
→ -9.6, 0.708, 1.3, i, -5.4, -2.4, 5.8
> CN1C(=O)c2cccc3c(S(=O)(=O)N(C)C)ccc1c23
→ -5.7, 0.712, -9.8, i, -7.0, -323.9, -0.6
> CCC(C)Sc1nnc(NS(=O)(=O)Cc2ccccc2)s1 (stereo unspecified)
→ 1.4, 0.669, 6.1, i, -0.6, 2.2, 0.8
> CCOC(=O)c1cc2occc2n1Cc1ccc(F)cc1
→ -13.9, 0.74, 0.9, /, 0.9, 0.8, -0.4
> CCc1nn(CC(=O)NCCCc2ccccc2)c(=O)c2cc3cc(F)ccc3n12
→ -12.3, 0.674, -0.6, /, 0.4, -4.0, -0.5
> CS(=O)(=O)N1CCN(c2ccc(NC(=O)COc3ccccc3[N+](=O)[O-])cc2)CC1
→ 1.0, 0.729, -2.0, i, -2.3, 6.3, -2.1
> CCCCN1C(=O)c2ccc(C(=O)Nc3ccc(S(=O)(=O)N(C)C)cc3)cc2C1=O
→ 8.1, 0.613, /, /, 6.7, -1.1, -0.2
> CCOC(=O)CC[C@H](NC(=O)Cn1cnc2c(OCc3ccccc3)ncnc21)C(=O)OCC
→ -4.0, 0.728, 2.1, i, i, 2.0, 1.8
> Cc1cnc(C(=O)Nc2ccc(C)c(S(=O)(=O)N3CCCCC3)c2)cn1
→ -3.5, 0.718, 5.7, i, 0.4, -1.9, -5.5
> O=C(Nc1nnc(C2CCCCC2)s1)c1ccco1
→ 8.6, 0.776, 19.2, /, -2.6, 4.7, 2.3
> CCOc1c(O)ccc(C2NC(=O)NC(C)=C2C(=O)OC)c1[N+](=O)[O-] (stereo unspecified)
→ 6.5, 0.717, 34.3, i, -3.2, 0.9, -3.3
> COc1cc2nc(N(CCCN(C)C)C(=O)c3ccc(C(=O)c4ccccc4)cc3)sc2cc1OC
→ -1.2, 0.638, -5.3, /, 3.8, 6.9, 3.0
> O=C(CCNC(=O)c1ccccc1Cl)Nc1cccc(S(=O)(=O)N2CCOCC2)c1
→ -1.4, 0.653, -4.7, i, -0.9, 0.8, 4.1
> CN(CCc1ccccc1)C(=O)c1ccc(NC(=O)Cc2cccc([N+](=O)[O-])c2)cc1
→ -2.5, 0.687, 3.1, i, -0.1, 0.8, 0.4
> COc1ccc(CNC(=O)Cn2cc(C)c(=O)[nH]c2=O)cc1
→ -2.4, /, /, i, /, /, 1.6
> Cc1ccc(/C=N/NC(=O)C(NC(=O)c2ccccc2)c2n[nH]c(=O)c3ccccc23)cc1 (stereo unspecified)
→ -2.6, /, -16.1, /, 0.0, /, -6.7
> CCC(C(=O)OCC(=O)c1c(N)n(CC(C)C)c(=O)n(C)c1=O)c1ccccc1 (stereo unspecified)
→ 1.5, 0.668, -1.0, i, 6.7, -0.6, 3.6
> CCOC(=O)c1cccc(NC(=O)c2ccc3c(c2)OCO3)c1
→ 6.0, 0.594, 1.5, i, -7.9, 0.8, -2.8
> CC1Cc2cc(/C(O)=C3/C(=O)C(=O)N(CCN4CCOCC4)C3c3ccc(C(C)C)cc3)ccc2O1 (stereo unspecified)
→ -3.3, /, /, i, -3.8, /, 0.8
> CC(C)CCNC(=O)c1cccc(C(=O)NCCC(C)C)c1
→ -3.6, 0.724, 0.2, /, -1.3, -3.2, -2.4
> CCOc1ccccc1N1CCN(C(=O)c2csc(C)c2CC)CC1
→ -1.7, 0.695, /, i, -4.5, -2.0, -2.0
> COc1ccc(/C=N/NC(=S)Nc2ccccc2)cc1COc1ccc(F)cc1
→ 9.8, /, -8.8, /, 4.9, /, 0.1
> O=S(=O)(NCc1ccccn1)c1cccc2nsnc12
→ 1.6, 0.765, -11.4, /, -7.1, 3.3, 1.3
> O=S(=O)(NCc1nc2ccccc2[nH]1)c1ccccc1
→ -3.1, 0.677, -0.6, i, 3.0, 0.5, 2.4
> CC(Oc1ccccc1F)c1ccnc2nc(/N=C/N(C)C)nn12 (stereo unspecified)
→ -1.2, /, 29.4, i, -0.6, /, -2.9
> Cc1ccc(S(=O)(=O)N(C)CC(=O)NNC(=O)CCC(=O)c2ccc(F)cc2)cc1
→ -3.7, 0.69, -2.6, i, 3.1, 3.7, -0.4

Additional records.
Results follow in this order: B2AR ag, E coli growth, ALR inh, FGF22 binding, LANA-H2B inh, UCH37 inh, HNF4A DNA FP
> O=S(=O)(c1ccccc1)N(F)S(=O)(=O)c1ccccc1
→ -1.2, 0.663, 6.3, i, 2.1, 0.4, 2.1
> O=C(CSc1nnc(-c2ccncc2)o1)NC1C2CC3CC(C2)CC1C3 (stereo unspecified)
→ -9.2, 0.648, -14.3, /, 5.6, 1.1, 3.2
> CC(C)=CCC/C(C)=C/CNC(=O)C[C@H]1C[C@H](C(=O)N2CCCCC2)[C@@]2(C)c3[nH]c4cc(CCC(=O)N(C)C)ccc4c3CCN2C1=O
→ 0.9, 0.696, /, /, /, 5.8, 2.3
> CCOc1ccccc1N(CC)C(=O)Cn1ncc2c(=O)oc3ccccc3c21
→ -8.3, 0.769, 1.4, i, -2.7, 3.7, 1.2
> CC(=O)Nc1ccc2nc(C3CCCCC3)[nH]c2c1
→ 5.9, 0.713, -4.5, /, 0.4, 2.9, 4.3
> COc1ccc(C(=O)Nc2c(N)nc(SCC(=O)NCC3CCCO3)[nH]c2=O)cc1OC (stereo unspecified)
→ -3.3, 0.749, 0.9, i, -3.5, -2.8, 0.9
> CCC(COC(=O)Nc1cccc(C)c1)NC(=O)OCC(C)C (stereo unspecified)
→ 2.3, 0.71, 5.1, /, 0.8, -0.8, 3.0
> CCOC(=O)c1c(NS(=O)(=O)c2ccc(Br)cc2)sc2c1CCC2
→ 14.7, 0.727, 63.3, /, -1.0, 3.8, 1.4

Screens deposited in PubChem BioAssay by several laboratories.

Some of the compounds tested. The share of hits here may be higher or lower than overall.
